KCNQ2 inh: KCNQ2 potassium channel inhibitors, primary screen, cell-based, CHO-K1, FluxOR thallium flux, B-score (AID 2156) | B-score at 10 µM | 20 min; hits give low values; only compounds with negative scores are shown here; some inactives read as strong as hits | Potassium voltage-gated channel subfamily KQT member 2 (Rattus norvegicus), O88943 | hit rate 1.1% among 310,000;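 active = fluorescence ratio B-score at most minus 3 library SDs, with starting brightness B-score within 2 library SDs, cut at about -5.5 in these data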
Target sequence (O88943 whole entry, looked up): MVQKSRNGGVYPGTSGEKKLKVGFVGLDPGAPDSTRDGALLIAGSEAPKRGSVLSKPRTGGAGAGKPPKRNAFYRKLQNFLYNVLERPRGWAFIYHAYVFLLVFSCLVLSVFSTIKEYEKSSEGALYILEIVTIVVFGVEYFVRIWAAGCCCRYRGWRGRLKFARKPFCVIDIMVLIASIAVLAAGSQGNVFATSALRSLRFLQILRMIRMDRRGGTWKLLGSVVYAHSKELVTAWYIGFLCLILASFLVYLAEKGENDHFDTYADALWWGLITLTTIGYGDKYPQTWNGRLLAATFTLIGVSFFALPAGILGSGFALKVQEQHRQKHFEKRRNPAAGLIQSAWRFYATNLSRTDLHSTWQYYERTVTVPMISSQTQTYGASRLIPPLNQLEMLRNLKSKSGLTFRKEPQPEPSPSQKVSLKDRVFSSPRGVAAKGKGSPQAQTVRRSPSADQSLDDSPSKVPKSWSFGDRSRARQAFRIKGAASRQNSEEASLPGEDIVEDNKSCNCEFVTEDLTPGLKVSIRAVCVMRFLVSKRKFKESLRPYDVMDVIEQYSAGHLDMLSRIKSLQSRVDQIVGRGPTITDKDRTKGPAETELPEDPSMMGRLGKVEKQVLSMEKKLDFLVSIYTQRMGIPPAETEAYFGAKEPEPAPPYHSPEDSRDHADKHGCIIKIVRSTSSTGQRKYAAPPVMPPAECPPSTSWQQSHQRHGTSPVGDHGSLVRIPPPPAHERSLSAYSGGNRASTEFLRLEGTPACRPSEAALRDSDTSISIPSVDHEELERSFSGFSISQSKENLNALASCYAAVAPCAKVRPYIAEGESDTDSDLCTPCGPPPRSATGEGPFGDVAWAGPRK
KCNQ2 inh baseline: recorded beside KCNQ2 inh, whose call it bears; B-score; measured here: initial fluorescence intensity artifact check;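 brightness before thallium and not channel activity; 0 = typical well and far values either way flag optical interference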
* = called active by the depositor; i = inactive. Only part of the results is shown. The share of hits here may be higher or lower than overall.

Value order – KCNQ2 inh | KCNQ2 inh baseline
> Cc1cc(C(C)(C)C)oc1C(=O)N(CC(=O)NC1CCCC1)Cc1ccc(Cl)cc1
  i | -0.38
> Cc1ccc(-n2ncc3c(NCc4ccccc4)ncnc32)cc1
  i | -0.98
> N#Cc1c(Nc2ccc(F)cc2)sc(C(=O)c2ccc(F)cc2)c1N
  i | -0.72
> Cc1nc2ncnn2c(C)c1CCC(=O)NCCc1ccccc1
  i | 1.7
> Cc1cc2cc(CNC(=O)c3cccc([N+](=O)[O-])c3)ccc2n1C
  i | 0.84
> OCCN(Cc1ccccc1)Cc1ccccc1Cl
  i | 4.4
> CCc1cc(C(=O)N2CCCC(C(=O)c3ccc(OC)c(F)c3)C2)n(C)n1 (stereo not drawn)
  i | 0.01
> O=C(NCCC1=CCCCC1)C1CCN(S(=O)(=O)c2ccccc2C(F)(F)F)CC1
  i | -0.03
> COc1cc(/C=C/C(=O)OCC(=O)Nc2sc3c(c2C#N)CCC(C)C3)ccc1OCC#N (stereo not drawn)
  i | 1.7
> COc1cc(/C=C2\C(=N)N3N=C(S(C)(=O)=O)SC3=NC2=O)ccc1OC(=O)c1ccco1
  i | 0.39
> O=C(CC(C(=O)O)c1ccc(Cl)cc1Cl)c1ccc(Cl)cc1 (stereo not drawn)
  i | -0.13
> Cc1noc(C)c1CSc1nnc(-c2cccnc2)n1C1CCCCC1C (stereo not drawn)
  i | 0.1
> Cc1ccc(NC(=O)c2ccco2)c(NC(=O)C2CCCO2)c1 (stereo not drawn)
  i | 0.31
> CC1=C(C(=O)OC(C)C)C(c2ccccc2Cl)CC(=O)N1 (stereo not drawn)
  i | 3.5
> Cc1ccccc1C(=O)N1CCN(C(c2ccccc2)c2ccccc2)CC1
  i | -0.01
> CCOC(=O)N1CCN(CCc2ccccc2)CC1
  i | 1.9
> Cc1cc(Cl)ccc1OCCCC(=O)NCCN1C(=O)S/C(=C\c2cccnc2)C1=O
  i | -0.7
> Cc1ccccc1OCCC(=O)OCC(=O)NC(=O)c1ccccc1
  i | -0.33
> NC(=O)C1CCN(C(=O)C(=O)c2cn(CC(=O)N3CCCCCC3)c3ccccc23)CC1
  i | 1.4
> CCCCCCP(=O)(O)c1ccccc1
  i | -1.4

The final 7 compounds of the section before are carried over, then new ones follow.
Value order – KCNQ2 inh | KCNQ2 inh baseline
> CC1=C(C(=O)OC(C)C)C(c2ccccc2Cl)CC(=O)N1 (stereo not drawn)
  i | 3.5
> Cc1ccccc1C(=O)N1CCN(C(c2ccccc2)c2ccccc2)CC1
  i | -0.01
> CCOC(=O)N1CCN(CCc2ccccc2)CC1
  i | 1.9
> Cc1cc(Cl)ccc1OCCCC(=O)NCCN1C(=O)S/C(=C\c2cccnc2)C1=O
  i | -0.7
> Cc1ccccc1OCCC(=O)OCC(=O)NC(=O)c1ccccc1
  i | -0.33
> NC(=O)C1CCN(C(=O)C(=O)c2cn(CC(=O)N3CCCCCC3)c3ccccc23)CC1
  i | 1.4
> CCCCCCP(=O)(O)c1ccccc1
  i | -1.4
> COC(=O)c1c(NC(=O)Cc2ccccc2)sc(C)c1C
  i | -2.1
> NC(=O)c1nsnc1-c1ccccc1O
  i | -0.38
> CC(=O)n1cc([C@@H]2C=C(C(=O)N3CCN(Cc4ccc5c(c4)OCO5)CC3)O[C@H](OCc3ccc(CO)cc3)C2)c2ccccc21
  -6.5* | -0.88*
> N#Cc1ccc(OCC(=O)Nc2cccc(S(=O)(=O)NC3=NCCCCC3)c2)cc1
  i | 0.12
> O=C(CS(=O)(=O)Cc1ccccc1)Nc1nc2c(s1)CCCC2
  i | -0.01
> COc1cccc(CNC(=O)CSCc2cnn(-c3ccccc3)c2-n2cccc2)c1OC
  i | -1.4
> Cc1nnsc1C(=O)NNC(=O)Nc1ccccc1
  i | -0.22
> COc1ccccc1/C=N/OCc1cc(C(C)=O)ccc1OC
  i | -0.9
> Cc1nn(Cc2cccc(C(=O)NC3CCCCC3)c2)c(C)c1Cl
  i | -0.8
> CC1CCN(S(=O)(=O)c2ccc3c(c2)c(=O)c(C(=O)NCc2cccs2)cn3C)CC1
  i | 0.53
> Cc1cccc(NC(=O)c2ccccc2-c2ccccc2)c1
  i | 1
> COc1cccc(/C=N/NC(=O)c2[nH]c(C)c(C(=O)N/N=C/c3cccc(OC)c3O)c2C)c1O
  i | -0.9
> COC(=O)[C@]1(CC(C)C)N[C@H](c2ccc(-c3ccc(F)cc3)c(OC)c2)[C@@H]2C(=O)N(C)C(=O)[C@@H]21
  i | -3.3
> CC(Oc1ccc(Cl)cc1Cl)C(=O)N(C)c1ccccc1 (stereo not drawn)
  i | 0.05
> O=C(CCc1ccc(O)c(O)c1)N/N=C/c1ccc2c(c1)OCO2
  i | -1.1
> C#CCn1c(=NC(=O)c2ccc(Br)s2)sc2cc(NC(C)=O)ccc21
  i | -1.9
> Fc1ccc(-n2cc(CNCCc3ccncc3)c(-c3ccccc3Cl)n2)cc1
  i | 0.91
> CCN(CC)c1ccc(/C=N/n2c(C)nc3ccccc3c2=O)cc1
  i | -0.6
> c1ccc(CN2CCOCCOCCOCC2)cc1
  i | 0.14
> O=C(O)COc1c(-c2ccc(Cl)cc2)oc2ccccc2c1=O
  i | 0.07
> COC(=O)c1ccccc1C(=O)N1CCC(CCC(=O)NC2CC2)CC1
  i | -3
> CN1C(=O)[C@H]2[C@@H](/C=C/c3ccccc3)N3C(=O)CN(Cc4ccccn4)C(=O)[C@@]3(C)[C@H]2C1=O
  i | -0.63
> COc1cccc(OC)c1C(=O)Nc1cc(Cl)ccc1N1CCOCC1
  i | -0.41
> CCOC(=O)Cc1nc2ccccc2o1
  i | 4
> Cc1cc(Nc2ccccc2)n(-c2ccccc2)n1
  i | -0.04
> CCOc1ccc(NC(=O)CSc2nnc(-c3ccccc3)n2N)cc1
  i | 0.58
> COc1ccc(/C=N/N=C/c2ccc(OC)c(O)c2)cc1O
  i | 2.2
> O=C(CNS(=O)(=O)c1ccccc1)NNC(=O)C(Cl)Cl
  i | 1.5
> Cc1ccc(C)c(OCc2nc(-c3cccnc3)no2)c1
  i | -0.23
> Cc1ccc(C)c(NC(=S)/C(=C(\[O-])c2ccc(OC(F)F)cc2)[n+]2ccccc2)c1
  i | 2
> COc1ccc(-c2nc(NC(=O)Cn3c(=O)oc4ccccc43)sc2C)cc1
  i | 0.35
> COc1ccc(NC(=O)N2CCOCC2)cc1OC
  i | -0.07
> CCn1c2ccccc2c2cnc(N=CN(C)C)c(C#N)c21
  i | 0.87
> O=C(CNC(=O)c1ccccc1Cl)OC1CCOC1=O (stereo not drawn)
  i | 0.81
> COc1ccc(C(C)(C)C)cc1NC(=O)c1[nH]c(C)c(C(C)=O)c1C
  i | 2
> CCCCn1c(CN2CCN(c3cccc(Cl)c3)CC2)nc2c1c(=O)n(C)c(=O)n2C
  i | 0.63
> CC1CCCC(C)N1C(=O)CSc1nnc(NC(=O)Cc2cccs2)s1 (stereo not drawn)
  i | 0.02
> COc1cccc(COC(=O)c2ccc(S(=O)(=O)N3CCC(C)CC3)cc2)c1OC
  i | -0.23
> O=C(Cn1c(=O)cnc2ccccc21)N1CCN(S(=O)(=O)c2cccc([N+](=O)[O-])c2)CC1
  i | -0.07
> Cc1csc2ncc(C(=O)N3CCc4ccccc43)c(=O)n12
  i | 2.6

(next part)
molecule,KCNQ2 inh,KCNQ2 inh baseline
CCOC(=O)C1CCN(c2c(NCCC(C)C)c(=O)c2=O)CC1,i,0.27
C=CCC1(CC=C)CCCN1Cc1nc(COc2ccccc2)no1,i,-1.3
Cc1ccc(-n2c(=S)sc3c(=O)n(-c4ccc(F)cc4)c(SCC(=O)O)nc32)cc1C,i,-1.5
CCOC(=O)/C(C#N)=C/c1ccc(-c2ccsc2C(=O)OC)o1,i,2.5
O=C(N/N=C/c1ccccc1F)c1cc2c(ccc3ccccc32)o1,i,-0.64
O=C(N[C@@H](Cc1ccccc1)C(=O)N[C@@H](Cc1ccccc1)C(=O)O)OCc1ccccc1,i,0.01
Cn1c(=O)cc(SCC(=O)NCC2CCCO2)c2ccccc21 (stereo not drawn),i,1.5
COC(=O)/C=C1/SC(=Nc2ccc(Cl)c(Cl)c2)NC1=O,i,1.2
COc1cccc(C2C(C(=O)c3ccc(C)o3)=C(O)C(=O)N2c2cc(C)on2)c1 (stereo not drawn),i,0.6
O=C(NCCCN1CCCC1)c1ccc2c(c1)N(Cc1ccccc1F)C(=O)c1ccccc1S2=O (stereo not drawn),i,-0.65
Cc1ccccc1OCC(O)CN1C(=O)c2ccccc2C1=O (stereo not drawn),i,0.23
O=C(CSc1nnc(-c2csc3c2CCCC3)o1)Nc1ccccc1,i,1.4
COc1cc(OC)cc(C(=O)Nc2nc(CC(=O)NCc3ccccc3OC)cs2)c1,-6.6*,-0.73*
O=C(NN1CCOCC1)c1ccc([N+](=O)[O-])cc1,i,0.87
Cc1ccccc1-n1c(SCC(=O)c2c(N)n(C)c(=O)n(C)c2=O)nnc1-c1cccnc1,i,0.76
Cc1[nH][nH]c(=O)c1C(c1ccc(-c2ccc(Cl)c(Cl)c2)o1)c1c(C)[nH][nH]c1=O,i,-0.1

Some values from above.
KCNQ2 inh baseline result of Cc1csc2ncc(C(=O)N3CCc4ccccc43)c(=O)n12 stands at 2.6
KCNQ2 inh baseline result of COc1cc(/C=C2\C(=N)N3N=C(S(C)(=O)=O)SC3=NC2=O)ccc1OC(=O)c1ccco1 stands at 0.39

(next part)
molecule,KCNQ2 inh,KCNQ2 inh baseline
O=[N+]([O-])c1ccc(-c2nnc(-c3ccccc3)c(N3CCOCC3)n2)cc1,i,0.69
COCCn1c(-c2ccccc2)nc2ccccc21,i,1.2
CCOC(=O)c1nc2sc3c(c2c(=O)[nH]1)CCC(C)C3 (stereo not drawn),i,0.77
COc1cc(/C=N/N=C/c2c[nH]c(=O)c(C#N)c2Nc2ccccc2)ccc1O,i,0.65
CC(C(=O)NC1CCCc2ccccc21)N1CCN(Cc2ccc3c(c2)OCO3)CC1 (stereo not drawn),i,0.01
O=C(OCc1cc2ccccc2[nH]c1=O)c1ccccn1,i,-0.73
Cc1ccccc1NC(=O)Cn1nc(C)c2ccccc2c1=O,i,-0.22
COc1ccc(OC)c2c(C)cc(N3CCCN(C)CC3)nc12,i,-0.18
Cc1c([N+](=O)[O-])cc(C(=O)Nc2ccc3ncccc3c2)cc1[N+](=O)[O-],i,0.97
CN(c1ccccc1)S(=O)(=O)c1ccc(C(=O)OCC(=O)NC(N)=O)cc1,i,-1.4
O=C(Oc1ccc(Cl)c2cccnc12)C12CC3CC(CC(C3)C1)C2,i,-0.05
O=C(N/N=C/c1ccncc1)NC12CC3CC(CC(C3)C1)C2,i,1.2
CCOC(=O)CNC(=O)N1CCC(CCC(=O)N(C)Cc2ccccc2)CC1,i,1.4
CCOC(=O)c1c(NC(=O)CN2C(=O)NC3(CCC(CC)CC3)C2=O)sc(C)c1-c1ccc(C)cc1 (stereo not drawn),i,-2.5
Cc1ccc(NC(=O)COC(=O)c2ccc(F)cc2Cl)c(Br)c1,i,0.13
O=C(/C=C/c1ccccc1)N1CCN(c2ccc([N+](=O)[O-])c(N3CCOCC3)c2)CC1,-6.4*,2.3*
COc1cc(C(=O)Nc2cc(C)cc(C)c2)c(-n2cnnn2)cc1OC,i,1.6
COc1ccc(Nc2ncc(C(=O)N3CCN(c4ccccc4OC)CC3)c3ccccc23)cc1,i,1.3
Cc1cc(C(=O)O)c(CCCN)s1,i,-1.4
CCc1ccccc1OCC(=O)Nc1nc(-c2cccnc2)cs1,i,-0.21
O=C1ON=C(c2ccc(Cl)cc2)/C1=C/c1ccc(O)cc1,-7.4*,-1.3*
COc1ccc(N2CCN(C(=O)c3ccc(C)c(Cl)c3)CC2)cc1,i,-0.38
COCc1cc(C(C)=O)ccc1OC,i,0.07
COc1cc(CO)c(Br)cc1OCC(N)=O,i,-1.9
O=C1[C@@H]2C(c3cccnc3)=NO[C@@H]2C(=O)N1c1ccc2ccccc2c1,i,0.34
CCOc1ccccc1-n1c(SCC(=O)NCc2ccco2)nnc1-c1ccncc1,i,0.8
CC1Oc2ccccc2N(CC(=O)c2ccccc2)C1=O (stereo not drawn),i,-1.7
CCc1cccc(OCC(=O)Nc2ccc(C)c(S(=O)(=O)N3CCCCCC3)c2)c1,i,-0.89
O=C1Nc2cc(C(=O)N3CCOCC3)ccc2S/C1=C\c1ccccc1,i,0.31
Cc1cccc2c(N=O)c(O)n(CCc3ccccc3)c12,i,0.94
O=C(NC(=S)Nc1ccccc1N1CCCCC1)c1ccc(F)cc1Cl,i,1.1
CC(=O)c1cccc(-n2c(CCC(=O)O)ccc2-c2ccccc2)c1,i,-1.8
Cc1cccc(N2CCN(C(=O)c3ccccc3NC(=O)C3=CSCCO3)CC2C)c1 (stereo not drawn),i,-0.87
CC(C)c1ccc(NC2CCCN(C(=O)c3cnn(C(C)C)c3)C2)cc1 (stereo not drawn),i,-1.2
Cc1ccccc1OCC(=O)NN1CCN(C)CC1,i,0.56
CC(=O)Oc1ccc(/C=C2/C(=O)N(c3ccccc3)N=C2C)cc1,i,2.9
Cc1cc(C)c(NC(=O)CS(=O)CC(=O)Nc2ccc(N3CCOCC3)cc2)c(C)c1 (stereo not drawn),i,-0.17
CCOC(=O)Nc1sc(C)nc1-c1ccccc1,i,0.63
COc1ccc(NC(=O)CCOc2ccccc2)cc1,i,0.1
O=C(COc1ccccc1Cl)NCCNC(=O)c1cccnc1,i,0.02
O=C(CN1C(=O)c2ccccc2C1=O)Nc1nc(-c2cccc([N+](=O)[O-])c2)cs1,i,-0.28
COc1ccccc1NC(=O)Nc1ccc2c(c1)OCCO2,i,-0.33
COc1ccc(CNC(=O)COC(=O)CCc2c[nH]c3ccccc23)cc1,i,-0.83

Laid out differently: 3 of the compounds above.
O=C1[C@@H]2C(c3cccnc3)=NO[C@@H]2C(=O)N1c1ccc2ccccc2c1
  KCNQ2 inh: i; KCNQ2 inh baseline: 0.34
CCOc1ccccc1-n1c(SCC(=O)NCc2ccco2)nnc1-c1ccncc1
  KCNQ2 inh: i; KCNQ2 inh baseline: 0.8
CC1Oc2ccccc2N(CC(=O)c2ccccc2)C1=O (stereo not drawn)
  KCNQ2 inh: i; KCNQ2 inh baseline: -1.7

Compound activity (PubChem BioAssay)
